LASV entry inh – qHTS for Inhibitors of binding or entry into cells for Lassa Virus; Lassa virus pseudotype entry inhibition, cell reporter; control for the full effect not named in the record; Potency, µM (highest dose often 37.9 µM), inactives show at the top dose activity change, negative = inhibition, hits mostly inhibitors; 300,000 compounds, 1.2% hits; AID 540256, 2011; active means well fitted inhibition curve with a large enough effect; inconclusive means small, poorly fitted or top-dose-only effect, or effect the other way; inactive means flat fitted curve, though single readings scatter; tested in HEK293 cells; also: % is scaled to controls: 0 for no effect and ±100 for the full control effect; nearly all actives have a fitted effect of over 50% in size; luciferase read-out
MARV entry inh – qHTS for inhibitors of binding or entry into cells for Marburg Virus; 300,000 compounds, 1.8% hits; Marburg virus pseudotyped entry inhibition, cell reporter; control for the full effect not named in the record; about a third of the inactives were read at about 46 µM; AID 540276, 2011; Potency, µM (top dose mostly 37.8 µM), without a hit: at the highest dose activity change, negative = inhibition, actives largely listed as inhibitors; active = well fitted inhibition curve with a large enough effect; inconclusive = small, poorly fitted or top-dose-only effect, or effect the other way; inactive = flat fitted curve, though single readings scatter; tested in HEK293 cells; about a fifth of its hits are not listed in these tables; also: % is scaled to controls: 0 for no effect and ±100 for the full control effect; luciferase read-out
RE007 growth inh – qHTS Assay for Inhibitors of the HIV-1 protein Vpr; S. pombe RE007 Vpr strain, BacTiter-Glo ATP luminescence, 24 h; control for the full effect not named in the record; Potency, µM (series often up to 92.2 µM), for inactives: top-dose activity change, negative = less growth; 360,000 compounds, 0.21% hits; active = well fitted falling curve with a large enough effect; inconclusive = small, poorly fitted or top-dose-only effect; inactive = no such curve, though single readings can be large or run the other way;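 also: % is scaled to controls: 0 for no effect and ±100 for the full control effect; nearly all actives have a fitted effect of over 50% in size; the assay follows cell death caused by Vpr and the record does not say whether a fall means rescue or toxicity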
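Fission yeast strain RE007, carrying one chromosomally integrated HIV-1 vpr copy, was seeded at OD 0.01 in PMG+AL medium with 23 nL pinned compound. After 24 h at 30 °C and 99% humidity, viability was read by BacTiter-Glo luminescence.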
Cruzain noTriton – qHTS Assay for Promiscuous and Specific Inhibitors of Cruzain (without detergent). Cruzipain (Trypanosoma cruzi), P25779. purified cruzain, Z-FR-AMC fluorescence, no detergent. Potency, µM, for the others: max response, negative = inhibition, most hits filed as inhibitors. 200,000 compounds, 2.3% hits. AID 1476, 2009; active = well fitted curve in the direction sought with a large enough effect; inconclusive = small, poorly fitted or top-dose-only effect, or another doubt; inactive = no such curve, though single readings can be large; an effect the other way counts as inactive or inconclusive;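 also: plate controls were enzyme without inhibitor for no effect and buffer without enzyme for full effect; nearly all actives have a fitted effect of over 40% in size; top concentration of the series not given in the record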
Target sequence (P25779 123-467 limits assumed): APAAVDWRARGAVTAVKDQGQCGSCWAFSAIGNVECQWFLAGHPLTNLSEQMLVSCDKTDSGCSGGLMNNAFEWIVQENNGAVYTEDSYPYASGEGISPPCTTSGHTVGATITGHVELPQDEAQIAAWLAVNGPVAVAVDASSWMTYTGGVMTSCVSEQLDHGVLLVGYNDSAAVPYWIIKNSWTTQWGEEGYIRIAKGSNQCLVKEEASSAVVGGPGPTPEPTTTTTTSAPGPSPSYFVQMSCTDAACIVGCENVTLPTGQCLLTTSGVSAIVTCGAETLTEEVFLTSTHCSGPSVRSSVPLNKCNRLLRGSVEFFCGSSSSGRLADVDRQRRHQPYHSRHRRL
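Detergent-free condition (0.00005% Triton X-100) in acetate buffer pH 5.5 with DTT. 1.5 nM enzyme and compound were pre-mixed 15 min, then 2 uM Z-FR-AMC substrate added; reaction progress from fluorescence change between first and third reads (60 s).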
2A StopGo – High Throughput Screening for Foot and Mouth Disease Virus Antivirals; AID 1159524, 2015; 410,000 compounds, 1.2% hits; human cells with a luciferase reporter of 2A StopGo recoding; control for the full effect not named in the record; Potency, µM (top dose mostly 57.9 µM), for the others: at the top dose signal change, negative = less light; active = well fitted falling curve with a large enough effect; inconclusive = small, poorly fitted or top-dose-only effect; inactive = no such curve, though single readings can be large or run the other way; tested in HEK293T cells; also: % is scaled to controls: 0 for no effect and ±100 for the full control effect; nearly all actives have a fitted effect of over 45% in size; luciferase light after 4 h
SARS PLP yeast – qHTS of Yeast-based Assay for SARS-CoV PLP; 330,000 compounds, 0.19% hits; Potency, µM (titrated, usually from 32.9 µM), for inactives: top-dose activity, positive = growth rescue; S. cerevisiae expressing SARS-CoV PLpro, growth rescue; control for the full effect not named in the record; also: 0% is about no effect; nearly all actives have a fitted effect of over 55% in size; growth read by luminescence after 48 h
Cruzain inh Det – qHTS Assay for Promiscuous and Specific Inhibitors of Cruzain (with detergent); Cruzipain (Trypanosoma cruzi), P25779; purified cruzain, Z-FR-AMC fluorescence, 0.01% Triton; Potency, µM, inactives show max response, negative = inhibition, actives largely listed as inhibitors; 200,000 compounds, 0.43% hits; AID 1478, 2009; active = well fitted curve in the direction sought with a large enough effect; inconclusive = small, poorly fitted or top-dose-only effect, or another doubt; inactive = no such curve, though single readings can be large; an effect the other way counts as inactive or inconclusive;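 also: plate controls were neutral wells for no effect and buffer without enzyme for full effect; nearly all actives have a fitted effect of over 40% in size; top concentration of the series not given in the record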
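Enzyme 1.5 nM, Z-FR-AMC 2 uM, NaOAc 100 mM pH 5.5, DTT 5 mM, Triton X-100 0.01%; 15 min RT compound preincubation; kinetic ex360/em450, 60 s delta.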
NS1 inh – qHTS Assay for Inhibitors of Influenza NS1 Protein Function. S. cerevisiae slowed by influenza A NS1, growth recovery by OD600. Potency, µM (series often up to 46.1 µM), for inactives: at the highest dose activity, positive = more growth. 270,000 compounds, 0.4% hits. AID 2326, 2010; also: actives are rising curves; nearly all actives have a fitted effect of over 50% in size
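Growth recovery, yeast-based: influenza A NS1 expressed in S. cerevisiae causes slow growth, and suppressors are detected by OD600. The parent strain without NS1 is used as positive control.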
* = called active by the depositor; ? = inconclusive; nt = not tested or not shown; & = joins results of further samples; [ ] = dose if it differs, or a comment. Unless noted, calls follow the shape of the dose curve; as a rule, active means well fitted rising curve with a large enough effect; inconclusive means small, poorly fitted or top-dose-only effect; inactive means no such curve, though single readings can be large or run the other way. Potency is read from the fitted curve at half-maximal effect.

Results follow in this order: LASV entry inh | MARV entry inh | RE007 growth inh | Cruzain noTriton | 2A StopGo | SARS PLP yeast | Cruzain inh Det | NS1 inh
Cc1nc(Cc2nnc(SC(C)C(=O)Nc3cccc(C#N)c3)o2)cs1 (stereo not given)
    19% | ? | -14% | nt | -10% | -9% | nt | nt
O=C(Nc1cccc(C(=O)OCc2cc(=O)n3c4c(sc3n2)CCCC4)c1)c1ccccc1
    26%[46.1 µM] | nt | nt | -1% | -8% | nt | 0.1% | nt
Cc1cc(C)c2c(=O)cc(C(=O)Nc3nc4ccc(F)cc4s3)oc2c1
    -10%[46.1 µM] | 4%[46.1 µM] | nt | -5% | -1% | nt | -0.5% | nt
CC(OC(=O)C1CC(=O)N(Cc2ccccc2)C1)C(=O)Nc1ccc(F)cc1Cl (stereo not given)
    -9% | 0%[46.1 µM] | -1% | nt | -6% | 1% | nt | nt
Cc1ccc(S(=O)(=O)N2CCC(n3nnc4cc(C)ccc43)CC2)cc1
    9% | 10% | -1% | 5% | nt | 18% | -2.4% | 8%
CCOC(=O)C(CO)(NC(C)=O)C(=O)OCC
    22% | -1% | 12% | 15% | 0% | ? | 0.5% | -3%
COC(=O)c1ccc(OCCN2CCCCCC2)cc1
    1%[46.1 µM] | 3%[46.1 µM] | -14% | nt | -6% | -1% | nt | nt
COCCCNC(=O)c1ccc(-c2csc(C)n2)cc1
    16% | 6% | 15% | nt | 15% | -4% | nt | nt
c1cn(CCCNC2=NCCCCC2)cn1
    2% | 3% | 7% | -6% | -2% | 3% | 4.2% | 4%
O=C(NNC(=O)c1ccc(Oc2cc(Cl)cc(Cl)c2)o1)c1ccccc1
    nt | nt | -16% | nt | -15% | -1% | nt | -3%
NC(=O)CSc1oc(-c2cccs2)nc1S(=O)(=O)c1ccccc1
    -2% | 9%&-7% | -2% | -23% | 6% | 2% | -3.3% | ?
COc1cc(/C=C/C(=O)c2c(O)n(CCc3ccccc3)c(=O)[nH]c2=O)ccc1O
    ? | ? | ? | ? | -5% | -81% | -15% | 26%
CCc1cc(C(=O)NCC(c2ccc(OC)cc2)N2CCOCC2)sc1C (stereo not given)
    23% | 16% | 6% | nt | -15% | 1% | nt | nt
O=C(CCCn1c(SCC(=O)NCC2CCCO2)nc2ccccc2c1=O)NCc1ccccc1 (stereo not given)
    10% | -3% | 7% | 3% | -4% | 12% | 2.7% | -9%
O=C(CCc1nnc(CCCc2ccccc2)o1)NCCc1ccco1
    nt | nt | -13% | nt | 66%[activator] | -1% | nt | -2%
CCN(CC(=O)NCc1ccc(Cl)cc1)C(=O)/C=C/c1ccc(C#N)cc1
    5% | -5%[46.1 µM] | -11% | nt | ? | 2% | nt | -8%
Cc1ccc2c(c1)N(N=O)CCC2
    -6% | ? | -18% | 2% | -13% | -3% | -2.5% | 14%
Cc1ccc2[nH]c(=O)c(CN(Cc3nnnn3Cc3ccccc3)C3CCCC3)cc2c1
    ? | ? | -14% | 3% | nt | -1% | -13% | -33%
CCOc1ccccc1N1CC(c2nc3ccccc3n2CCOc2ccc(C(C)(C)C)cc2)CC1=O (stereo not given)
    ? | ? | nt | ? | -17% | nt | -15% | nt
Cc1ccc(C(=O)Nc2ccccc2)cc1S(=O)(=O)Nc1ccc(Br)cc1
    ? | nt | nt | 11% | 28% | nt | -9.2% | nt
N#CCCn1cc(/C=N/NC(=O)c2ccncc2)c(-c2ccccc2)n1
    14% | 14% | 6% | -3% | 9% | -3% | 2.7% | -12%
O=C(N/N=C/c1cc([N+](=O)[O-])cc([N+](=O)[O-])c1O)/C(=C\c1cccs1)NC(=O)c1ccccc1
    5% | ? | 11% | 24% | -18% | ? | ? | 7%
Cc1c(Cl)c(C(F)(F)F)nn1CC(=O)N1CCSCC1
    11% | -10% | -5% | 2% | 2% | 16% | -1.3% | 1%
COc1ccc(C)cc1S(=O)(=O)N(CC(=O)Nc1cccc([N+](=O)[O-])c1)c1ccc(C)cc1
    -21% | ? | 7% | ? | 2% | ? | -7.8% | -45%
O=C(/C=C/c1ccc(OC(F)F)cc1)Nc1cccc(S(=O)(=O)N2CCOCC2)c1
    ? | ? | 2% | nt | ? | 1% | nt | -4%
Cc1c(C(=O)OC(C)CCN(C)C)oc2ccccc12 (stereo not given)
    -3% | -21% | -4% | -5% | 6% | 4% | 2.1% | -3%
c1ccc(CSc2nnc(NC3=NCCCCC3)s2)cc1
    26% | 0%[46.1 µM] | ? | -14% | 10% | -3% | -7.8% | -33%
O=C(CCNC(=O)c1ccc([N+](=O)[O-])cc1)Nc1ccccc1N1CCCC1
    2% | -10% | -17% | nt | -8% | 1% | nt | ?
CC(C)(C)C(=O)NCCc1nc2ccccc2n1CCCCOc1ccccc1
    -17%[46.1 µM] | ? | nt | 3% | -15% | nt | -4.1% | nt
COc1ccc(C2NCc3ccccc3-n3cccc32)cc1 (stereo not given)
    nt | nt | 1% | -26% | -7% | -2% | -14% | -1%
NS(=O)(=O)c1ccc(N/N=C/c2ccc[nH]2)c([N+](=O)[O-])c1
    nt | nt | -6% | nt | 7% | 1% | nt | 7%
O=C(Cn1cc(C(=O)C(F)(F)F)c2ccccc21)NCc1ccco1
    -2% | ? | 1% | nt | 13% | -1% | nt | nt
COc1ccc(NC(=O)CSc2nnnn2C2CCCCC2)c(OC)c1
    -14% | 0%[46.1 µM] | 6% | nt | -16% | 2% | nt | -1%
CC(NC(=O)Nc1ccc(Br)cc1)C(C)(C)C (stereo not given)
    nt | nt | -17% | nt | 35%[activator] | -2% | nt | -42%
OCCN(CCCn1c(-c2ccncc2)nc2ccccc21)c1nc(CN2CCCCC2)cs1
    nt | nt | -12% | nt | -13% | -9% | nt | 7%
CCOc1ccc(NC(=O)CC2C(=O)N(c3ccc(OC)cc3)C(=O)N2C2CCCCC2)cc1 (stereo not given)
    ? | -3%[46.1 µM] | nt | ? | -18% | nt | -1.4% | nt
CN(C(=O)COC(=O)c1ccc(Br)c([N+](=O)[O-])c1)c1c(N)n(Cc2ccccc2)c(=O)[nH]c1=O
    4%[46.1 µM] | ? | -23% | nt | -12% | 9% | nt | nt
O=C(NCCCN1CCc2ccccc2C1)Nc1ccc(Cl)cc1
    ? | 8% | -11% | -15% | 2% | 0% | -12% | -18%
O=[N+]([O-])c1cccc(Nc2nc(Cl)nc(Cl)n2)c1
    -13% | -18%[46.1 µM] | 26% | nt | 9% | 1% | nt | nt
CC(C)c1c(C(=O)N/N=C/c2ccc(OCc3ccccc3)cc2)nnn1-c1nonc1N
    nt | nt | 2% | nt | ? | -8% | nt | -25%
COc1ccc(CCC(=O)N2CCN(S(=O)(=O)c3cccs3)CC2)cc1
    1% | -14% | 1% | nt | -24% | -3% | nt | nt
c1ccc(-c2cnc(-c3cccnc3)o2)cc1
    1% | ? | -1% | 4% | 33%[activator] | 6% | 0.0% | -62%
O=C1NCCN(Cc2ccoc2)C1CC(=O)N(CCO)Cc1ccccc1 (stereo not given)
    -17% | -21%[46.1 µM] | 4% | nt | 3% | -2% | nt | -3%
O=C1C2CCC(C(O)C2)N1Cc1ccccc1 (stereo not given)
    -11% | -1% | -2% | 1% | -18% | 2% | 4.8% | -5%
O=C(Nc1cccc(Cl)c1)c1cc2c(=O)[nH]c3ccccc3c2s1
    11%[46.1 µM] | 4%[46.1 µM] | nt | -1% | 36%[activator] | nt | -2.8% | nt

For reference, part of the list above.
Results follow in this order: LASV entry inh | MARV entry inh | RE007 growth inh | Cruzain noTriton | 2A StopGo | SARS PLP yeast | Cruzain inh Det | NS1 inh
NS(=O)(=O)c1ccc(N/N=C/c2ccc[nH]2)c([N+](=O)[O-])c1
    nt | nt | -6% | nt | 7% | 1% | nt | 7%
O=C(Cn1cc(C(=O)C(F)(F)F)c2ccccc21)NCc1ccco1
    -2% | ? | 1% | nt | 13% | -1% | nt | nt

New compounds follow.
Results follow in this order: LASV entry inh | MARV entry inh | RE007 growth inh | Cruzain noTriton | 2A StopGo | SARS PLP yeast | Cruzain inh Det | NS1 inh
O=C(CNC(=O)/C=C/c1ccco1)N=Nc1c(O)[nH]c2ccccc12
    nt | nt | -4% | nt | -5% | 1% | nt | 1%
Cn1c(=O)c2nc(SCc3ccccc3)n(C)c2n(C)c1=O
    19%[46.1 µM] | -2%[46.1 µM] | 4% | nt | -10% | nt | nt | nt
CCOC(=O)CN(C(=O)CSc1nnc2c(n1)[nH]c1c(C)cc(C)cc12)c1ccccc1
    nt | 2% | nt | ? | nt | 12% | -4.3% | -3%
COc1ccc(NC(=O)c2ccco2)cc1NC(=O)c1cccnc1
    -2% | -3% | 10% | -7% | 4% | -3% | -4.1% | 5%
N#Cc1cc2c(=O)n3ccccc3nc2n(CCCn2ccnc2)c1=N
    nt | 0% | -1% | -97% | -6% | 1% | ? | -5%
Cc1csc(=O)n1CC(=O)OCC(=O)NNC(=O)c1ccc([N+](=O)[O-])cc1
    -8% | -1% | 4% | nt | -9% | nt | nt | nt
COCCN(C(=O)CSc1nnc(C)n1Cc1ccccc1)c1c(N)n(CC(C)C)c(=O)[nH]c1=O
    ? | 4%[46.1 µM] | -7% | nt | -9% | -3% | nt | nt
COc1cccc(CC(=O)n2nc(N)c3cc4ccc(OC)cc4nc32)c1
    nt | nt | 0% | -13% | -24% | 7% | -0.6% | 9%
Cc1cc(OCC(=O)NCC2CCC(C(=O)O)CC2)c2c(C)c(Cc3ccccc3)c(=O)oc2c1 (stereo not given)
    nt | nt | -4% | nt | 8% | -7% | nt | 4%

Assay outcomes: PubChem, National Center for Advancing Translational Sciences (NCATS)

Compounds were not picked by outcome. Share with any hit: about 4.6%.
